From PubChem BioAssay
TRPV1 PAM: HTS Assay for Compounds that Act as Potentiators of the Vanilloid Receptor 1 | potentiation, % at 8.33 µM | Transient receptor potential cation channel subfamily V member 1 (Homo sapiens), Q8NER1 | 0.02% of 320,000 active | AID 540277, 2011 | TRPV1-expressing cells, Fluo-8 calcium influx, capsaicin EC20 potentiation; host cell line not named in the record; control for the full effect not named in the record; active means potentiation above 80%; inconclusive means 30% to 80%; inactive means below 30%; further: 0% is about no effect
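TRPV1-expressing cells were cultured overnight at 35.5C and loaded with Fluo-8 calcium dye for 40 to 90 min at room temperature. After a 10 s baseline, compound was added and calcium influx was read kinetically for 3 min (ex 480/em 520 nm).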
Six1-Eya2 blk: qHTS Assay for Inhibitors of the Six1/Eya2 Interaction. 0.56% of 360,000 active. AlphaScreen GST-Six1/His-Eya2 binding, biochemical; hits give low values; control for the full effect not named in the record. activity change, % (no concentration beside the values). Homeobox protein SIX1 (Homo sapiens) + Protein phosphatase EYA2 (Homo sapiens), …; in the data active = activity change below about -65%; inconclusive = about -30% to -65%; inactive = above about -30%; further: on the % scale 0 is the no-effect control and ±100 the full control effect; compound concentration not given in the record
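Six1/Eya2 binding was read as AlphaScreen signal after compounds were pinned into GST-Six1 plus His-tagged Eya2 (5X stock 250/500 nM) in pH 8.0 Tris/NaCl/TCEP buffer, beads added, then incubated 1 h, 37 C, dark.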
TRPML1 agonist: qHTS for Agonists of the Human Mucolipin Transient Receptor Potential 1 (TRPML1). AID 624414, 2012. Mucolipin-1 (Homo sapiens), Q9GZU1. 0.12% of 410,000 active. TRPML1-expressing cells, Ca2+ dye fluorescence, FDSS; host cell line not named in the record; reference of the full effect not given here. activation, % (test concentration not listed); in the data active = activation above about 50%; inconclusive = about 30% to 50%; inactive = below about 30%; further: 0% is about no effect; the text of the record puts the active cut at 80%
Target sequence (Q9GZU1 whole entry, looked up): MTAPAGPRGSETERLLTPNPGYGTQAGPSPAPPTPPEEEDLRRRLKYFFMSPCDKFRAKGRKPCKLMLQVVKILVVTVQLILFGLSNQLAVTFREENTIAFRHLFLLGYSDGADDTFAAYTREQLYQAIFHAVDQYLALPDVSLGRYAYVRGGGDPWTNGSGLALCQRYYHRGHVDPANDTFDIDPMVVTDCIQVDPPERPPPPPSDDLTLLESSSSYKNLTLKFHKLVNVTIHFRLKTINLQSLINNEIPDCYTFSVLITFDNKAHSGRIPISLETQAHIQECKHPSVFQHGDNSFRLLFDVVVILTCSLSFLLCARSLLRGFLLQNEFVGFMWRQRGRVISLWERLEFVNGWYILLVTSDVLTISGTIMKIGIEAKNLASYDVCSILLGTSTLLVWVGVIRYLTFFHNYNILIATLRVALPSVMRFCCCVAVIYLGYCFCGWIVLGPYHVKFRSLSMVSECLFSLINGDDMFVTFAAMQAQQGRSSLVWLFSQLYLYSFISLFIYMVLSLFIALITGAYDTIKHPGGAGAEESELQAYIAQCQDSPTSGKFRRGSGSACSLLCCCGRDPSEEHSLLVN
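Agonist activity was taken from a 110 s kinetic Ca2+ dye read on the FDSS after pinning compounds onto TRPML1-DL cells. The cells were seeded at 1,500/well with Tet inducer, incubated about 16 h, then dye-loaded at room temperature.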
D2 PAM: Beta-Arrestin HTS for Positive Allosteric Modulators of the Human D2 Dopamine Receptor: Potentiators | 0.23% of 360,000 active | potentiation, % (concentration not given with the values) | DiscoveRx D2 beta-arrestin cells, luminescence, 90 min; 100% = 57 uM dopamine signal | D(2) dopamine receptor (Homo sapiens), P14416 | AID 624464, 2012; active = potentiation of 50% or more; inconclusive = 30% to 50%; inactive = 30% or less;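 further: compound concentration not given in the record; tested on top of an EC20 dose of dopamine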
Target sequence (P14416 whole entry, looked up): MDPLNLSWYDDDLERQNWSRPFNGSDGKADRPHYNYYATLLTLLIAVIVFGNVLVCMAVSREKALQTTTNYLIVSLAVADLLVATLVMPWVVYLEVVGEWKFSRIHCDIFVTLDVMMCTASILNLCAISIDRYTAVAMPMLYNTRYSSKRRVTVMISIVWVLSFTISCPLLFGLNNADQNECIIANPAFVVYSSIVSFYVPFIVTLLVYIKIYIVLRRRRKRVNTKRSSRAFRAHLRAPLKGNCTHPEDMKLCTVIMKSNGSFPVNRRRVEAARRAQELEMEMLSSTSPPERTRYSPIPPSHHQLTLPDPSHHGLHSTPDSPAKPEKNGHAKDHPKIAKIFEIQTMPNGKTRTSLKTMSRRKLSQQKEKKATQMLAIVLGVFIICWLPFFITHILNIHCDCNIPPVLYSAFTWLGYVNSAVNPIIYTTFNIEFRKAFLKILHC
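D2 cells co-treated with compound plus 50 nM dopamine (EC20) for 90 min at 37 deg C to detect potentiation. Beta-arrestin recruitment was read as enzyme-fragment luminescence after 1 h at ambient temperature. Full response was set by 57 uM dopamine.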
CtBP-E1A inh: qHTS Assay for Inhibitors of the CtBP/E1A Interaction; AlphaScreen GST-E1A/His-CtBP binding, 1536-well; hits give low values; control for the full effect not named in the record; activity change, % (no concentration beside the values); 0.49% of 340,000 active; AID 651724, 2012; in the data active means activity change below about -65%; inconclusive means about -30% to -65%; inactive means above about -30%; further: on the % scale 0 is the no-effect control and ±100 the full control effect; compound concentration not given in the record
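In 5 uL wells, 23 nL compound meets equimolar GST-E1A and His-CtBP (5X stock 125 nM each) for 2 h, 37 °C. Beads (5X, 50 ug/mL) then 1 h, 37 °C, dark.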
TRPML1 inh: qHTS for Inhibitors of the Human Mucolipin Transient Receptor Potential 1 (TRPML1) | Mucolipin-1 (Homo sapiens), Q9GZU1 | 0.02% of 390,000 active | activity change, negative = inhibition, % (no concentration beside the values) | AID 624415, 2012 | TRPML1-inducible cells, Ca2+ dye fluorescence, FDSS; hits give low values; inhibition of EC80 agonist-evoked calcium signal; in the data active means activity change below about -50%; inconclusive means about -30% to -50%; inactive means above about -30%;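 further: stimulus is agonist 54-4 at its EC80 concentration; on the % scale 0 is the no-effect control and ±100 the full control effect; compound concentration not given in the record; the text of the record puts the active cut at -80%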
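TRPML1-DL cells, Tet-induced overnight (~16 h, 37 °C) at 1,500 cells/well, were loaded with Ca8 no-wash dye plus quencher for 45-90 min at room temperature. Compounds were pinned during FDSS kinetic reading; agonist 54-4 at EC80 (4 uM final) then added.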
The depositor's hits bear a star; & = joins results of further samples.

`O=C(NNc1c(F)c(F)cc(F)c1F)c1ccco1` gave Six1-Eya2 blk 6, TRPML1 agonist -0.6, D2 PAM 0, CtBP-E1A inh 11 and TRPML1 inh -5.
Screening COc1ccc(C2CCCN2CC(O)COc2ccccc2C(C)C)cc1 (centres undefined) returned TRPV1 PAM -10, Six1-Eya2 blk -5, TRPML1 agonist 1.3, D2 PAM -4, CtBP-E1A inh 0 and TRPML1 inh -17.
For CC(NC(=O)c1ccc(N(C)C)c([N+](=O)[O-])c1)c1ccc(-n2ccnc2)cc1 (centres undefined) the results were TRPV1 PAM 0, Six1-Eya2 blk -1, TRPML1 agonist 3.2, D2 PAM -34, CtBP-E1A inh -5 and TRPML1 inh -16.
OCCN1C2=NCCCN2c2ccccc21 was read as TRPV1 PAM 1, Six1-Eya2 blk -3, TRPML1 agonist 0.0, D2 PAM -3, CtBP-E1A inh 6 and TRPML1 inh 18.
For CN(C)CCCn1c2c(c(SCC(=O)Nc3nccs3)nc1=O)CCC2 the results were TRPV1 PAM 4, Six1-Eya2 blk -2, TRPML1 agonist 0.3, D2 PAM -14, CtBP-E1A inh -17 and TRPML1 inh 15.
For Cc1cccc2nc(-c3ccco3)oc(=O)c12 the results were TRPV1 PAM -8, Six1-Eya2 blk -1, TRPML1 agonist -0.8, D2 PAM -6, CtBP-E1A inh -3 and TRPML1 inh 27.
O=C(O)CCCNC(=O)CCCn1nnc2ccccc2c1=O was read as TRPV1 PAM -4, Six1-Eya2 blk 3, TRPML1 agonist 0.4, D2 PAM -6, CtBP-E1A inh 5 and TRPML1 inh 2.
Screening CCN(CC)c1ccc(CN(C(=O)c2ccco2)C2CCS(=O)(=O)C2)cc1 (centres undefined) returned TRPV1 PAM -3, Six1-Eya2 blk -4, TRPML1 agonist 1.5, D2 PAM -5, CtBP-E1A inh 6 and TRPML1 inh -2.
Screening Cc1ccc(C(=O)NCCOC23CC4CC(CC(C4)C2)C3)cc1 returned TRPV1 PAM -18, Six1-Eya2 blk -2, TRPML1 agonist 0.2, D2 PAM -3, CtBP-E1A inh -12 and TRPML1 inh -16.
Screening CCCn1c(SCC(=O)c2cc(OC)ccc2OC)nnc1-c1ccco1 returned TRPV1 PAM 14, Six1-Eya2 blk -8, TRPML1 agonist -0.5, D2 PAM -20, CtBP-E1A inh -4 and TRPML1 inh -11.
`O=C(Nc1cc(Cl)ccc1-n1cncn1)c1cccc(S(=O)(=O)N2CCOCC2)c1` gave TRPV1 PAM 8, Six1-Eya2 blk 2, TRPML1 agonist 0.2, D2 PAM 0, CtBP-E1A inh -10 and TRPML1 inh 8.
`COC(=O)c1c(NS(=O)(=O)c2ccc3ccccc3c2)sc2c1CCCC2` gave TRPV1 PAM 14, Six1-Eya2 blk -9, TRPML1 agonist -0.2, D2 PAM -7, CtBP-E1A inh -15 and TRPML1 inh -11.
Screening O=c1cc(-c2ccccc2)c2ccccc2[nH]1 returned TRPV1 PAM -9, Six1-Eya2 blk 0, TRPML1 agonist 4.9, D2 PAM -5, CtBP-E1A inh -4 and TRPML1 inh 18.
`O=C(ON=C1CCN(c2ccc([N+](=O)[O-])cc2)CC1)c1ccccc1` gave TRPV1 PAM 4, Six1-Eya2 blk -18, TRPML1 agonist 0.3, D2 PAM 6, CtBP-E1A inh -9 and TRPML1 inh 8.
Screening CC(=O)NCC(O)c1ccc([N+](=O)[O-])cc1 (centres undefined) returned TRPV1 PAM -3, Six1-Eya2 blk -2, TRPML1 agonist -0.5, D2 PAM 1 and TRPML1 inh 5.
COc1ccc(C(c2c(O)nc[nH]c2=O)c2c(O)nc[nH]c2=O)cc1 was read as TRPV1 PAM 1, Six1-Eya2 blk 4, TRPML1 agonist 0.6, D2 PAM 4, CtBP-E1A inh 7 and TRPML1 inh 0.
For Cc1ccccc1C1CC(c2cccs2)=NN1S(C)(=O)=O (centres undefined) the results were TRPV1 PAM 20, Six1-Eya2 blk -9, TRPML1 agonist -0.2, D2 PAM -11, CtBP-E1A inh -13 and TRPML1 inh -5.
`Cc1nc2c(c(C)nn2-c2ccccc2)c(C)c1Cl` gave TRPV1 PAM 2, Six1-Eya2 blk 1, TRPML1 agonist 0.1, D2 PAM 0, CtBP-E1A inh 6 and TRPML1 inh 17.
For N#CC1=C(N)Oc2c(ccc3ccccc23)C1c1ccsc1 (centres undefined) the results were TRPV1 PAM 0, Six1-Eya2 blk -11, TRPML1 agonist 0.1, D2 PAM 22, CtBP-E1A inh 1 and TRPML1 inh 3.
`FC(F)Oc1ccccc1NC(=S)NCCc1ccccc1` gave Six1-Eya2 blk 7, TRPML1 agonist 1.3, D2 PAM -13, CtBP-E1A inh 2 and TRPML1 inh -1.
CC1Cc2ccccc2N1CC(=O)Nc1ccc(S(=O)(=O)N(C)C)cc1 (centres undefined) was read as TRPV1 PAM 4, Six1-Eya2 blk -8, TRPML1 agonist -0.4, D2 PAM -13, CtBP-E1A inh -7 and TRPML1 inh -9.
For Cc1cccn2c(=O)c3cc(C(=O)NCCN4CCOCC4)c(=N)n(CCN4CCOCC4)c3nc12 the results were TRPV1 PAM 5, Six1-Eya2 blk 19, TRPML1 agonist 0.0, D2 PAM -5, CtBP-E1A inh -18 and TRPML1 inh 9.
Screening CCN1C(=O)c2ccc(C(=O)Nc3cccc(C(=O)O)c3)cc2C1=O returned TRPV1 PAM -3, Six1-Eya2 blk 4, TRPML1 agonist -1.0, D2 PAM -5, CtBP-E1A inh 6 and TRPML1 inh 1.
`COC(=O)c1cn(C)c2ccc(S(=O)(=O)N3CCCCC3)cc2c1=O` gave TRPV1 PAM 8, Six1-Eya2 blk -9, TRPML1 agonist 0.6, D2 PAM -6, CtBP-E1A inh -9 and TRPML1 inh 1.
Screening Cc1ccc2[nH]c(=O)c(CN(CCCN3CCOCC3)C(=O)NC3CCCCC3)cc2c1 returned TRPV1 PAM -13, Six1-Eya2 blk -1, TRPML1 agonist -0.9, D2 PAM -21, CtBP-E1A inh -1 and TRPML1 inh 2.
Cc1oc(/C=N/NC(=O)CN(c2ccccc2Cl)S(C)(=O)=O)cc1Br was read as TRPV1 PAM 5, Six1-Eya2 blk 2, TRPML1 agonist 0.5, D2 PAM -9, CtBP-E1A inh 0 and TRPML1 inh -4.
For Cc1cc(C)cc(-n2c(C)cc(C(=S)N3CCOCC3)c2C)c1 the results were TRPV1 PAM 4, Six1-Eya2 blk -15, TRPML1 agonist -0.2, D2 PAM -3, CtBP-E1A inh -16 and TRPML1 inh 13.
Screening CN(C)C(CNC(C(=O)Nc1ccc([N+](=O)[O-])cc1Br)c1ccccc1)c1ccccc1 (centres undefined) returned TRPV1 PAM -2, Six1-Eya2 blk inconclusive, TRPML1 agonist 0.3, D2 PAM -11, CtBP-E1A inh -24 and TRPML1 inh -3.
Screening Cc1cc(COC(=O)C2N3C(=O)[C@@H](NC(=O)COc4ccccc4)[C@H]3SC2(C)C)on1 (some centres undefined) returned TRPV1 PAM -10, Six1-Eya2 blk 4, TRPML1 agonist -0.4&-0.1, D2 PAM -8, CtBP-E1A inh 0 and TRPML1 inh -13.
Screening COc1ccc(/C=C/C(=O)NC(=S)Nc2ccccc2)cc1OC returned TRPV1 PAM -6, Six1-Eya2 blk -2, TRPML1 agonist 0.3, D2 PAM -3, CtBP-E1A inh 0 and TRPML1 inh 1.

Overlap with the part before: four compounds, followed by the next part.
For Cc1cc(C)cc(-n2c(C)cc(C(=S)N3CCOCC3)c2C)c1 the results were TRPV1 PAM 4, Six1-Eya2 blk -15, TRPML1 agonist -0.2, D2 PAM -3, CtBP-E1A inh -16 and TRPML1 inh 13.
Screening CN(C)C(CNC(C(=O)Nc1ccc([N+](=O)[O-])cc1Br)c1ccccc1)c1ccccc1 (centres undefined) returned TRPV1 PAM -2, Six1-Eya2 blk inconclusive, TRPML1 agonist 0.3, D2 PAM -11, CtBP-E1A inh -24 and TRPML1 inh -3.
Screening Cc1cc(COC(=O)C2N3C(=O)[C@@H](NC(=O)COc4ccccc4)[C@H]3SC2(C)C)on1 (some centres undefined) returned TRPV1 PAM -10, Six1-Eya2 blk 4, TRPML1 agonist -0.4&-0.1, D2 PAM -8, CtBP-E1A inh 0 and TRPML1 inh -13.
Screening COc1ccc(/C=C/C(=O)NC(=S)Nc2ccccc2)cc1OC returned TRPV1 PAM -6, Six1-Eya2 blk -2, TRPML1 agonist 0.3, D2 PAM -3, CtBP-E1A inh 0 and TRPML1 inh 1.
CN(C)/C=C(\C#N)C(=O)Nc1ccccc1 was read as TRPV1 PAM 3, Six1-Eya2 blk 0, TRPML1 agonist 0.2, D2 PAM 0, CtBP-E1A inh 6 and TRPML1 inh -11.
CCc1ccccc1NC(=O)Cn1nc(C(F)(F)F)c2c1CCC2 was read as TRPV1 PAM 2, Six1-Eya2 blk 11, TRPML1 agonist -0.1&1.0, D2 PAM -18, CtBP-E1A inh -1 and TRPML1 inh 11&1.
Screening Cc1ccc(C)c(CN2CCC(CNC(=O)Nc3ccc(F)c(Cl)c3)CC2)c1 returned TRPV1 PAM -5, Six1-Eya2 blk -12, TRPML1 agonist 2.9, D2 PAM -16, CtBP-E1A inh -19 and TRPML1 inh 62.
`CC1=C[C@@H](C)[C@@H](c2ccc(C(F)(F)F)cc2)OC1=O` gave TRPV1 PAM 6, Six1-Eya2 blk -1, TRPML1 agonist -0.8&1.5, D2 PAM -2, CtBP-E1A inh 13 and TRPML1 inh 3&18.
CCCOC(=O)C(C)n1cnc2sc(C)c(C)c2c1=O (centres undefined) was read as TRPV1 PAM 1, Six1-Eya2 blk 9, TRPML1 agonist 0.1, D2 PAM -13 and TRPML1 inh -2.
`Nc1c(Cl)ncnc1N1CCOCC1` gave Six1-Eya2 blk 3, TRPML1 agonist 1.0, D2 PAM -3, CtBP-E1A inh 3 and TRPML1 inh 17.
Screening COc1ccc(N2C(=O)c3ccccc3NC2c2ccccc2O)cc1 (centres undefined) returned TRPV1 PAM -2, Six1-Eya2 blk 1, TRPML1 agonist -0.4, D2 PAM -21, CtBP-E1A inh -18 and TRPML1 inh 13.
`Clc1cncc(Cl)c1N/N=C/c1ccncc1` gave TRPV1 PAM -12, Six1-Eya2 blk 1, TRPML1 agonist 0.1, D2 PAM -5, CtBP-E1A inh 0 and TRPML1 inh -13.
`COC(=O)C(N)CCCCN` (centres undefined) gave Six1-Eya2 blk 10, D2 PAM -7 and CtBP-E1A inh 8.
For COc1cccc(CNC(=O)[C@@H]2CCCN2C(=O)[C@H]2CCCCN2C(=O)c2ccc(Cl)cc2)c1 the results were Six1-Eya2 blk 2, TRPML1 agonist -1.0 and CtBP-E1A inh 1.
Clc1cccc(CN2CCC3CC2c2cc(N4CCCCC4)ccc23)c1 (centres undefined) was read as Six1-Eya2 blk -28, TRPML1 agonist 0.0, CtBP-E1A inh -18 and TRPML1 inh 59.
